Screening results from PubChem.
Lassa entry inh = qHTS for Inhibitors of binding or entry into cells for Lassa Virus | Potency, µM (highest dose often 37.9 µM), without a hit: at the highest dose activity change, negative = inhibition, most hits filed as inhibitors | 300,000 compounds, 1.2% hits | Lassa virus pseudotype entry inhibition, cell reporter; control for the full effect not named in the record; active means well fitted inhibition curve with a large enough effect; inconclusive means small, poorly fitted or top-dose-only effect, or effect the other way; inactive means flat fitted curve, though single readings scatter; tested in HEK293 cells; also: % is scaled to controls: 0 for no effect and ±100 for the full control effect; nearly all actives have a fitted effect of over 50% in size; luciferase read-out
Cruzain noTriton = qHTS Assay for Promiscuous and Specific Inhibitors of Cruzain (without detergent). purified cruzain, Z-FR-AMC fluorescence, no detergent. Cruzipain (Trypanosoma cruzi), P25779. 200,000 compounds, 2.3% hits. AID 1476, 2009. Potency, µM, without a hit: max response, negative = inhibition, actives largely listed as inhibitors; active = well fitted curve in the direction sought with a large enough effect; inconclusive = small, poorly fitted or top-dose-only effect, or another doubt; inactive = no such curve, though single readings can be large; an effect the other way counts as inactive or inconclusive;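 also: plate controls were enzyme without inhibitor for no effect and buffer without enzyme for full effect; nearly all actives have a fitted effect of over 40% in size; top concentration of the series not given in the record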
Target sequence (P25779 123-467 limits assumed): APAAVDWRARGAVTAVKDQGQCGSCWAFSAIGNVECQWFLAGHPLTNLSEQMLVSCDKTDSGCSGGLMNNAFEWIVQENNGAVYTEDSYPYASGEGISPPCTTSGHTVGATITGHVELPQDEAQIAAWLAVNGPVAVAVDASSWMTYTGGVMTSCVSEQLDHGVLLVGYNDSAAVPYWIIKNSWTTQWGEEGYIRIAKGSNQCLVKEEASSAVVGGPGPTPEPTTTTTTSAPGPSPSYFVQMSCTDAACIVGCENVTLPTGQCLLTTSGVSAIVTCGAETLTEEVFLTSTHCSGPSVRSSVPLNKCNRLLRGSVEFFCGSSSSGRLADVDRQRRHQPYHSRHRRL
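Purified cruzain at 1.5 nM, pre-incubated 15 min with compound at room temperature in 100 mM sodium acetate pH 5.5, 5 mM DTT, 0.00005% Triton X-100. Reaction started with 2 uM Z-FR-AMC; AMC fluorescence increase over 60 s gives rate.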
Cruzain inh Det = qHTS Assay for Promiscuous and Specific Inhibitors of Cruzain (with detergent). Cruzipain (Trypanosoma cruzi), P25779. purified cruzain, Z-FR-AMC fluorescence, 0.01% Triton. Potency, µM, for inactives: max response, negative = inhibition, hits mostly inhibitors. 200,000 compounds, 0.43% hits; active = well fitted curve in the direction sought with a large enough effect; inconclusive = small, poorly fitted or top-dose-only effect, or another doubt; inactive = no such curve, though single readings can be large; an effect the other way counts as inactive or inconclusive;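 also: plate controls were neutral wells for no effect and buffer without enzyme for full effect; nearly all actives have a fitted effect of over 40% in size; top concentration of the series not given in the record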
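15 min RT preincubation of 1.5 nM cruzain with compound, then 2 uM Z-FR-AMC added; kinetic AMC fluorescence, 60 s delta. Triton X-100 0.01%, pH 5.5.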
Marburg entry inh = qHTS for inhibitors of binding or entry into cells for Marburg Virus | Marburg virus pseudotyped entry inhibition, cell reporter; control for the full effect not named in the record; about a third of the inactives were read at about 46 µM | Potency, µM (titrated, usually from 37.8 µM), for inactives: at the highest dose activity change, negative = inhibition, most hits filed as inhibitors | 300,000 compounds, 1.8% hits | AID 540276, 2011; active = well fitted inhibition curve with a large enough effect; inconclusive = small, poorly fitted or top-dose-only effect, or effect the other way; inactive = flat fitted curve, though single readings scatter; tested in HEK293 cells; about a fifth of its hits are not listed in these tables; also: % is scaled to controls: 0 for no effect and ±100 for the full control effect; luciferase read-out
NS1 function inh = qHTS Assay for Inhibitors of Influenza NS1 Protein Function | S. cerevisiae slowed by influenza A NS1, growth recovery by OD600 | Potency, µM (titrated, usually from 46.1 µM), for inactives: at the top dose activity, positive = more growth | 270,000 compounds, 0.4% hits; also: actives are rising curves; nearly all actives have a fitted effect of over 50% in size
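Compounds were scored for reversing the slow growth caused by influenza A NS1 in S. cerevisiae, measured by optical density at 600 nm. Assay medium contained 2% galactose at pH 6.0; NS1-free yeast of the same strain were the positive control.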
StopGo reporter = High Throughput Screening for Foot and Mouth Disease Virus Antivirals | human cells with a luciferase reporter of 2A StopGo recoding; control for the full effect not named in the record | Potency, µM (series often up to 57.9 µM), without a hit: at the highest dose signal change, negative = less light | 410,000 compounds, 1.2% hits; active = well fitted falling curve with a large enough effect; inconclusive = small, poorly fitted or top-dose-only effect; inactive = no such curve, though single readings can be large or run the other way; tested in HEK293T cells; also: % is scaled to controls: 0 for no effect and ±100 for the full control effect; nearly all actives have a fitted effect of over 45% in size; luciferase light after 4 h
SARS PLP yeast = qHTS of Yeast-based Assay for SARS-CoV PLP | AID 485353, 2010 | S. cerevisiae expressing SARS-CoV PLpro, growth rescue; control for the full effect not named in the record | 330,000 compounds, 0.19% hits | Potency, µM (top dose mostly 32.9 µM), for the others: top-dose activity, positive = growth rescue; also: 0% is about no effect; nearly all actives have a fitted effect of over 55% in size; growth read by luminescence after 48 h
RE007 growth inh = qHTS Assay for Inhibitors of the HIV-1 protein Vpr; S. pombe RE007 Vpr strain, BacTiter-Glo ATP luminescence, 24 h; control for the full effect not named in the record; Potency, µM (series often up to 92.2 µM), without a hit: at the highest dose activity change, negative = less growth; 360,000 compounds, 0.21% hits; active = well fitted falling curve with a large enough effect; inconclusive = small, poorly fitted or top-dose-only effect; inactive = no such curve, though single readings can be large or run the other way;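 also: % is scaled to controls: 0 for no effect and ±100 for the full control effect; nearly all actives have a fitted effect of over 50% in size; the assay follows cell death caused by Vpr and the record does not say whether a fall means rescue or toxicity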
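Fission yeast strain RE007, carrying one chromosomally integrated HIV-1 vpr copy, was seeded at OD 0.01 in PMG+AL medium with 23 nL pinned compound. After 24 h at 30 °C and 99% humidity, viability was read by BacTiter-Glo luminescence.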
The depositor's hits bear a star; u = inconclusive; x = no result given; & = joins results of further samples; ! = repeats disagree; [ ] = dose if it differs, or a comment. Unless noted, calls follow the shape of the dose curve; as a rule, active means well fitted rising curve with a large enough effect; inconclusive means small, poorly fitted or top-dose-only effect; inactive means no such curve, though single readings can be large or run the other way. Potency is read from the fitted curve at half-maximal effect.

structure	Cruzain noTriton	NS1 function inh	Lassa entry inh	RE007 growth inh	SARS PLP yeast	Marburg entry inh	StopGo reporter	Cruzain inh Det
CCN(CC(=O)N1CCN(Cc2ccccc2)CC1)S(=O)(=O)c1ccccc1	x	7%	0%	7%	23%	0%	-14%	x
COc1ccc(-n2c(C)nn(C)c2=O)c(OC)c1	-8%	-1%	22%	-4%	6%	1%	-18%	12%
NC(=O)NCCCC(=O)OCC(=O)c1ccc2ccccc2c1	x	x	u	-8%	1%	-7%[46.1 µM]	-2%	x
COc1ccc(C2SCCN2C(=O)c2ccc([N+](=O)[O-])cc2)cc1 (stereo not drawn)	x	x	4%	-3%	1%	1%[46.1 µM]	-22%	x
CCOC(=O)C1CCC(CN(Cc2cccc(Br)c2)S(=O)(=O)c2ccc(C)cc2)CC1 (stereo not drawn)	1%	x	-25%[46.1 µM]	x	x	x	-25%	3.1%
CN1C(=O)C(=Cc2cn(CC(=O)N3CCCC3)c3ccccc23)C(=O)N(C)C1=O	x	-3%	1%[46.1 µM]	3%	-1%	1%[46.1 µM]	23%	x
CS(=O)(=O)Nc1ccc(C2=NN(C(=O)c3ccco3)C(c3ccco3)C2)cc1 (stereo not drawn)	x	6%	u	36%	-7%	-9%	-11%	x
Cc1nn(-c2ccc(F)cc2)c2c1cc(C#N)c1nc3ccccc3n12	11%	1%	-1%	29%	0%	5%	-12%	3.6%
COC(=O)[C@@H]1[C@@H](C)OC(=O)N[C@H]1c1ccccc1	-2%	4%	21%	-6%	5%	12%	6%	0.6%
O=C1NN(c2ccc(F)cc2)C(=O)/C1=C\C=C\c1ccco1	u	22%	11%	-9%	-5%	5%	-4%	-8.0%
COc1ccccc1NC(=O)Nc1ccnn1C1CCN(C(=O)c2ccccn2)CC1	x	-5%	8%	-16%	6%	1%	-13%	x
O=C1COc2ccc(C(=O)c3ccccc3)cc2CN1	2%	-7%	3%	-9%	4%	7%	2%	0.8%
Cc1sc2nc(CN(Cc3cccs3)C(=O)C3CC3)[nH]c(=O)c2c1C	-16%	-2%	x	x	-1%	0%	0%	0.3%
COC(=O)N/N=C/c1cn(CCCOc2ccc(C)cc2)c2ccccc12	28%	14%	u	7%	1%	u	-24%	-12%
CCOc1nc(-c2ccccc2)ccc1-c1noc(-c2ccc(C)cc2)n1	18%	x	-2%[46.1 µM]	x	x	19%[46.1 µM]	-8%	1.4%
CC1CCCC(NC(=O)Nc2cccs2)C1C (stereo not drawn)	-4%	2%	-1%	-26%	-10%	12%	32%[activator]	-4.9%
Cc1cc(OCC(=O)Nc2cc(-c3nc4ncccc4o3)ccc2C)ccc1Cl	-7%	x	u	x	x	15%[46.1 µM]	26%	-1.7%
COC(=O)c1ccc(COc2ccc3c(C)c(C)c(=O)oc3c2)o1	-28%	-12%	-2%	9%	u	7%	44%[activator]	u
CC(C)c1nnc(NC(=O)CCC(=O)Nc2ccc(F)cc2)s1	5%	6%	2%	2%	6%	4%	0%	5.8%
Cc1cc(C(=O)NN=C2CCCCCCC2)c2ccccc2n1	x	x	10%	-10%	-1%	2%	-3%	x
COC(=O)Nc1nc(C)c(C(=O)c2ccccc2)s1	-7%	-8%	u	31%	10%	u	10%	3.5%
COc1cc(NS(=O)(=O)c2cc(C(=O)NCCc3ccccn3)ccc2OC)cc(OC)c1	x	x	x	-1%	1%	-7%[46.1 µM]	37%[activator]	x
CSCCC(NC(=O)c1ccco1)C(=O)OCc1cc([N+](=O)[O-])cc2c1OCOC2 (stereo not drawn)	x	-6%	x	-8%	-6%	x	-9%	x
CCOc1ccc(NC(=O)CN(C)C(=O)/C=C/c2ccc(S(=O)(=O)N3CCCCCC3)cc2)cc1OCC	x	x	-20%	18%	x	-17%	-16%	x
Cc1cccc(C(=O)NCCN2CCOCC2)c1[N+](=O)[O-]	4%	15%	0%	13%	12%	21%	-11%	0.9%
Cc1ccc(OCCSC2=NN2c2cc(C)nc(N)n2)cc1	x	6%	x	-4%	2%	x	1%	x
O=C(Nc1c2c(nn1-c1ccc(F)cc1)CS(=O)C2)c1ccc(S(=O)(=O)N2CCOCC2)cc1 (stereo not drawn)	x	x	12%[46.1 µM]	7%	-1%	11%[46.1 µM]	-10%	x
Cc1ccc(C)c(Cn2c(=O)n(-c3ccc(Cl)cc3)c(=O)c3c4c(sc32)CCC4)c1	-4%	x	1%[46.1 µM]	x	x	-3%[46.1 µM]	-3%	-0.5%
COc1ccc(NC(=O)Cn2c(=O)n(Cc3ccc(C(=O)NCc4ccccc4Cl)cc3)c(=O)c3ccccc32)cc1OC	-8%	x	0%[46.1 µM]	x	x	u	-24%	-0.7%
O=S(=O)(Nc1cccc(C(F)(F)F)c1)c1ccc(-c2cnc(C3CC3)o2)cc1	u	x	u	x	x	x	-2%	-13%

A portion from the list above:
structure	Cruzain noTriton	NS1 function inh	Lassa entry inh	RE007 growth inh	SARS PLP yeast	Marburg entry inh	StopGo reporter	Cruzain inh Det
Cc1nn(-c2ccc(F)cc2)c2c1cc(C#N)c1nc3ccccc3n12	11%	1%	-1%	29%	0%	5%	-12%	3.6%
COC(=O)[C@@H]1[C@@H](C)OC(=O)N[C@H]1c1ccccc1	-2%	4%	21%	-6%	5%	12%	6%	0.6%
O=C1NN(c2ccc(F)cc2)C(=O)/C1=C\C=C\c1ccco1	u	22%	11%	-9%	-5%	5%	-4%	-8.0%

New compounds follow
structure	Cruzain noTriton	NS1 function inh	Lassa entry inh	RE007 growth inh	SARS PLP yeast	Marburg entry inh	StopGo reporter	Cruzain inh Det
O=C(O)C1=C[C@H](c2ccc(Br)cc2)C[C@H](OCc2ccc(CO)cc2)O1	x	3%	x	10%	-1%	x	-8%	x
N#CC1(NC(=O)CN2CCc3ccccc3C2)CCCC1	x	x	0%	-13%	2%	6%[46.1 µM]	-6%	x
COc1ccc2nc(NC(=O)Nc3cccc4ccccc34)sc2c1	x	x	-13%	-15%	-1%	-10%	35%[activator]	x
CCOCCn1c(=O)c2c(nc3n2CCCN3CCc2ccccc2)n(C)c1=O	x	-1%	x	4%	4%	x	-24%	x
CCC(=O)Nc1c(-c2ccc(Cl)cc2)c(=O)c2ccccc2n1C	x	1%	x	-8%	0%	x	-8%	x
CC1=C([N+](=O)[O-])C(c2ccccc2)C2=C(N1)c1ccccc1C2=O (stereo not drawn)	-2%	4%	u	-3%	-25%	u	u	-11%
CC(=O)C1=C(c2ccc(Cl)c(Cl)c2)N(C(C)=O)n2c(nnc2-c2ccccc2)S1	-5%	x	u	x	x	x	-13%	-1.3%
N=C1C(c2nc3ccccc3s2)=C(O)CN1NC(=O)c1ccccc1[N+](=O)[O-]	x	3%	-6%	-4%	0%	-11%[46.1 µM]	-11%	x
CCC(C(=O)OCC(=O)Nc1c(C)nn(-c2ccccc2)c1C)c1ccccc1 (stereo not drawn)	x	x	9%	-4%	-4%	-6%[46.1 µM]	-21%	x
O=S(=O)(c1ccccc1)c1nc(-c2ccc(Cl)cc2Cl)oc1N1CCCCCC1	7%	x	29%[46.1 µM]	x	x	-18%[46.1 µM]	7%	-1.8%
Cc1ccccc1NC(=O)Cn1c(=O)n(CCc2ccccc2)c(=O)c2ccccc21	-11%	x	-12%[46.1 µM]	x	x	u	-7%	-2.5%
CC(C)C(=O)NCC1(N(C)C)CCCCC1	-3%	x	-17%[46.1 µM]	x	x	-4%[46.1 µM]	u	-0.9%
Cc1ccc(CC(=O)NC2CCN(C)CC2)cc1	x	1%	5%[46.1 µM]	12%	-8%	u	-8%	x
COc1ccccc1NC(=O)C1CCCN(S(=O)(=O)c2ccc3c(c2)CC(C)N3C(C)=O)C1 (stereo not drawn)	x	15%	x	-7%	4%	x	u	x
CC(C)NC(=O)CCn1ccc2cc(S(=O)(=O)N3CCCC3)ccc21	x	3%	u	-6%	-4%	4%[46.1 µM]	15%	x
CCOC(=O)c1[nH]cnc1C(=O)Nc1ccncc1	3%	8%	7%	7%	1%	-28%	-16%	3.0%
CCCC1(C)Nc2ccccc2-c2nc3ccccc3n21 (stereo not drawn)	27%	-59%	24%	-14%	-20%	-4%	0%	-23%
CCOC(=O)C1CCCN(C(=O)COC(=O)c2cc(=O)c3ccccc3o2)C1 (stereo not drawn)	7%	-9%	2%	15%	1%	-6%&12%	x	-1.7%
Cc1ccc(NC(=O)CN(C)CCOc2ccccc2)c([N+](=O)[O-])c1	x	-30%	20%[46.1 µM]	-3%	2%	0%[46.1 µM]	0%	x
Cc1nc2scc(C)n2c(=O)c1S(=O)(=O)Nc1ccc(F)cc1	x	6%	3%	-8%	-3%	-4%[46.1 µM]	38%[activator]	x
Cc1c([N+](=O)[O-])nnn1-c1cc(Cl)cc(Cl)c1	x	x	4%[46.1 µM]	4%	1%	u	-24%	x
Oc1ccc(O)cc1	-6%&-8%&-4%	-6%	u	x	x	7.9µM*!	11%	-3.5%&8.6%&3.5%
CC(=O)c1ccc(NC(=O)CSc2ccc(-c3ccc4c(c3)OCO4)nn2)cc1	u	-3%	12%	-19%	-4%	-25%	32%[activator]	-4.8%
CC(C)CC(C(=O)Nn1cnnc1)N1C(=O)c2ccccc2C1=O (stereo not drawn)	-2%	12%	-28%	-2%	5%	6%	5%	-0.4%
CC(C)=CC[N+]1(C)CCCCC1	1%	-8%	2%	21%	-5%	6%	-1%	2.2%

The order is random (roughly 4.6% active in at least one column).
